Bioassay records deposited in PubChem BioAssay by several laboratories.
FPR ligand – binds the human formylpeptide receptor FPR | P21462 | FPR-expressing cells, fluorescent ligand binding, flow cytometry | inhibition, %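 (tested at 6.7 µM)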 | 0.74% of 24,000 active;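 also: 0% = buffer wells and 100% = receptor blocker peptide wells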
Target sequence (P21462 whole entry, looked up): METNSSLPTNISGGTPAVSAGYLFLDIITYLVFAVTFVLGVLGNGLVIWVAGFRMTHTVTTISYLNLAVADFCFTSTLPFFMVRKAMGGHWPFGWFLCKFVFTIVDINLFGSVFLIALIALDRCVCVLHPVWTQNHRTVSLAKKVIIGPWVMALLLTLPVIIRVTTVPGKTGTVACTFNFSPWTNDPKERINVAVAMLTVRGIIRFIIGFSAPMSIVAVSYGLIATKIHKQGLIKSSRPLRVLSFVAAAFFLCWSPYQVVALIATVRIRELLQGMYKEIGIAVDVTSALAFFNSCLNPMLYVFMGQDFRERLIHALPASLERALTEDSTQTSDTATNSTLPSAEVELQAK
FPRL1 binder – ligands of human FPRL1, also counter-screen for FPR ligands | inhibition, %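 (tested at 6.7 µM)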 | 0.3% of 24,000 active | FPRL1-expressing cells, fluorescent ligand binding inhibition, flow cytometry | AID 441;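 also: 0% = buffer alone and 100% = receptor blocker peptide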
Target sequence (P25090 whole entry, looked up): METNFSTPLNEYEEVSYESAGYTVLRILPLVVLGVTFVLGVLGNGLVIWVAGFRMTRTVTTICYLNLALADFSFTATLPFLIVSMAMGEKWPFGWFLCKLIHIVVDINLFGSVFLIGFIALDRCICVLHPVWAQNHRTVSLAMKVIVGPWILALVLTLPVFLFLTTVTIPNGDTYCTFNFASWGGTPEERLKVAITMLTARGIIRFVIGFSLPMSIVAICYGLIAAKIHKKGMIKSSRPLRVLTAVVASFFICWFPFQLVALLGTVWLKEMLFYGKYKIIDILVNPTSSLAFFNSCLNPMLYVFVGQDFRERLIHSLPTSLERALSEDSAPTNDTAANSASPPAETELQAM
VCAM-1 up imaging – boosters of cytokine-driven VCAM-1 levels – imaging, high-content imaging, pooled HUVEC, TNFa stimulus (AID 457). 0.2% of 10,000 active. calls only. Pooled HUVEC, TNFa-induced VCAM-1 immunofluorescence imaging; hits of this screen are not shown here;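 active = a top-ranked rise in VCAM-1 staining upheld on image or statistical review; inactive = the rest, including candidates rejected on review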;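 also: compounds tested at 5 µM in the well; cells exposed to compound for 24 hours before fixing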
VCAM-1 imaging – inhibitors of TNFa-induced VCAM-1 surface display, imaging, high-content imaging, pooled HUVEC, TNFa stimulus (AID 456). 0.2% of 10,000 active. inhibition, % at 5 µM; hits with a dose series show IC50 in µM. HUVEC TNFa-induced VCAM-1 surface expression, immunofluorescence imaging; numbers were filed only for top-ranked candidate wells;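 active = top tenth filtered wells with inhibition above zero that passed visual or statistical confirmation; inactive = the rest, including hits rejected on review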;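 also: 0% = stimulated vehicle wells and 100% = unstimulated cells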
VCAM-1 down – inhibitors of TNFa-induced VCAM-1 surface display, cell-based, plate reader, pooled HUVEC, TNFa stimulus (AID 454); 0.2% of 10,000 active; inhibition, % at 5 µM; HUVEC TNFa-induced VCAM-1 surface immunofluorescence, plate reader; numbers were filed only for top-ranked candidate wells;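 active = compound among top-ranked inhibitors of TNF-induced VCAM-1 adhesion protein staining, with the hit upheld by image or statistical review; inactive = the rest, including hits rejected on review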;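 also: 0% = TNFa with vehicle and 100% = cells without TNFa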
The depositor's hits bear a star.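 The calls were made as follows, unless noted: active = mean above 30%; inconclusive = self-fluorescent; inactive = the rest.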 The list is partial; count on the stated rates, not on these rows.

Preview:
`CCOc1ccccc1C(=O)N(CN1CCCC1=O)c1ccc(C)c(Cl)c1` gave FPR ligand -7.2 and FPRL1 binder 1.3.
Screening COc1ccc(C(C)NC(=O)C2C(=O)NC3(C)CC2c2ccccc2O3)cc1 (stereo unspecified) returned FPR ligand 1.7 and FPRL1 binder 0.9.

This part in full, from the start:
`CCOc1ccccc1C(=O)N(CN1CCCC1=O)c1ccc(C)c(Cl)c1` gave FPR ligand -7.2 and FPRL1 binder 1.3.
Screening COc1ccc(C(C)NC(=O)C2C(=O)NC3(C)CC2c2ccccc2O3)cc1 (stereo unspecified) returned FPR ligand 1.7 and FPRL1 binder 0.9.
For CC1CC(C)CN(S(=O)(=O)c2ccc(NC(=O)C3COc4ccccc4O3)cc2)C1 (stereo unspecified) the results were FPR ligand -8.4 and FPRL1 binder -8.6.
`COc1ccc(C2C3=C(OC(C)=O)c4ccccc4C3=Nc3c2c(=O)n(C)c(=O)n3C)cc1` (stereo unspecified) gave FPR ligand -6.5, FPRL1 binder -3.4, VCAM-1 up imaging inactive, VCAM-1 imaging inactive and VCAM-1 down inactive.
Screening O=C(O)CCN1C(=O)CC2(CCCCC2)C1=O returned FPR ligand 6.5 and FPRL1 binder 1.1.
Screening O=C(CCN1C(=O)COc2ccccc21)NCCN1CCOCC1 returned FPR ligand -5.0 and FPRL1 binder -1.8.
CC(C)NC(=O)C1(O)c2ccccc2NC(=O)N1c1ccc(Cl)c(Cl)c1 (stereo unspecified) was read as FPR ligand -3.7 and FPRL1 binder -1.3.
`COc1ccc(N2CCN(C(c3ccco3)c3sc4nc(C)nn4c3O)CC2)cc1` (stereo unspecified) gave FPR ligand 4.0 and FPRL1 binder 1.8.
CCOC(=O)N1CCN(Cc2cc(=O)oc3ccc4ccccc4c23)CC1 was read as FPR ligand -2.9, FPRL1 binder -6.2, VCAM-1 up imaging inactive, VCAM-1 imaging inactive and VCAM-1 down inactive.
For O=C(Nc1nonc1NC(=O)C1CCCCC1)C1CCCCC1 the results were FPR ligand 8.8, FPRL1 binder -2.8, VCAM-1 up imaging inactive, VCAM-1 imaging inactive and VCAM-1 down inactive.
COc1ccc(-c2cc(C(F)(F)F)nc(S(C)(=O)=O)n2)cc1OC was read as FPR ligand -6.8 and FPRL1 binder 4.9.
For Clc1cccc(N2CCN(Cc3nc(-c4ccccc4)no3)CC2)c1 the results were FPR ligand 1.4, FPRL1 binder 2.0, VCAM-1 up imaging inactive, VCAM-1 imaging inactive and VCAM-1 down inactive.
COc1ccc2oc(=O)c(-c3nnc(NCc4ccco4)s3)cc2c1 was read as FPR ligand 7.1 and FPRL1 binder -0.1.
Screening CCOC(=O)CNC(=O)CN1C(=O)CCSc2ccccc21 returned FPR ligand 5.4 and FPRL1 binder -6.4.
For CC(C)(C)n1ncc2c(=O)n(CC(=O)N3CCN(c4ccccc4)CC3)cnc21 the results were FPR ligand -0.8 and FPRL1 binder -4.3.

Of the compounds above, these have a Cl atom:
`CCOc1ccccc1C(=O)N(CN1CCCC1=O)c1ccc(C)c(Cl)c1` gave FPR ligand -7.2 and FPRL1 binder 1.3.
CC(C)NC(=O)C1(O)c2ccccc2NC(=O)N1c1ccc(Cl)c(Cl)c1 (stereo unspecified) was read as FPR ligand -3.7 and FPRL1 binder -1.3.
For Clc1cccc(N2CCN(Cc3nc(-c4ccccc4)no3)CC2)c1 the results were FPR ligand 1.4, FPRL1 binder 2.0, VCAM-1 up imaging inactive, VCAM-1 imaging inactive and VCAM-1 down inactive.

(further entries)
For Cc1nn(Cc2ccc(C(=O)NC(C)(C)C)o2)c(C)c1Br the results were FPR ligand 8.8 and FPRL1 binder 0.3.
O=C(Nc1ccc(S(=O)(=O)N2CCCC2)cc1)C1COc2ccccc2O1 (stereo unspecified) was read as FPR ligand -0.3 and FPRL1 binder -3.5.
`COc1ccccc1C(=O)Nc1c2c(nn1-c1cccc(C)c1C)CS(=O)(=O)C2` gave FPR ligand 3.3, FPRL1 binder 1.3, VCAM-1 up imaging inactive, VCAM-1 imaging inactive and VCAM-1 down inactive.
`CC(C)NS(=O)(=O)c1ccc2c(c1)oc(=O)n2C` gave FPR ligand 2.1 and FPRL1 binder 0.6.
Cc1ccc(NC(=O)N2CCCN(Cc3ccc(F)cc3)C2)cc1C was read as FPR ligand 5.6 and FPRL1 binder 18.5.
C=CCN1C(=O)C2(C(C#N)=C(N)Oc3n[nH]c(CCC)c32)c2ccccc21 (stereo unspecified) was read as FPR ligand 0.2, FPRL1 binder -2.6, VCAM-1 up imaging inactive, VCAM-1 imaging inactive and VCAM-1 down inactive.
CCN(Cc1ccccc1)C(=O)Cn1c(=O)n(CC(=O)NCc2ccco2)c(=O)c2sccc21 was read as FPR ligand -2.4 and FPRL1 binder 9.6.
`Cc1cccc(Nc2ccccc2C(=O)OCC(=O)N(C)C2CCS(=O)(=O)C2)c1C` (stereo unspecified) gave FPR ligand -15.7 and FPRL1 binder 3.3.
CCn1c(SCC(=O)NC)nnc1C(C)C was read as FPR ligand -5.6, FPRL1 binder -3.2, VCAM-1 up imaging inactive, VCAM-1 imaging inactive and VCAM-1 down inactive.
For CC(=O)O[C@H]1C(=O)[C@]2(C)[C@H]([C@H](OC(=O)c3ccccc3)[C@]3(O)C[C@H](OC(=O)[C@H](O)[C@@H](NC(=O)c4ccccc4)c4ccccc4)C(C)=C1C3(C)C)[C@]1(OC(C)=O)CO[C@@H]1C[C@@H]2O the results were FPR ligand 0.8, FPRL1 binder 0.8, VCAM-1 up imaging inactive, VCAM-1 imaging inactive and VCAM-1 down inactive.
Cc1ccc(S(=O)(=O)NC(=O)c2cc(C)n(CCCn3ccnc3)c2C)cc1 was read as FPR ligand -1.6, FPRL1 binder 0.8, VCAM-1 up imaging inactive, VCAM-1 imaging inactive and VCAM-1 down inactive.
COc1ccc(NC(=O)NCCCN2CCN(c3cc(C)ccc3C)CC2)cc1 was read as FPR ligand 0.9 and FPRL1 binder 1.7.
O=C(CCN1CCN(c2ccccn2)CC1)Nc1ccc(F)cc1 was read as FPR ligand 1.9 and FPRL1 binder 1.3.
For O=C(NCc1ccc(Cl)cc1)C1C2C=CC3(CN(Cc4cccnc4)C(=O)C13)O2 (stereo unspecified) the results were FPR ligand 7.6 and FPRL1 binder 3.9.
c1cncc(-c2nnc(SCc3cccc4ccccc34)o2)c1 was read as FPR ligand -0.5 and FPRL1 binder -8.0.
Screening CCN1CCCC1CNC(=O)c1ccc(CS(=O)(=O)c2ccccc2C)o1 (stereo unspecified) returned FPR ligand -4.1 and FPRL1 binder 6.6.
O=c1c(-c2ccc(Br)cc2)coc2c(CN3CCOCC3)c(O)ccc12 was read as FPR ligand -0.5, FPRL1 binder 0.7, VCAM-1 up imaging inactive, VCAM-1 imaging inactive and VCAM-1 down inactive.
Screening O=C1CCCC(O)=C1C=Nc1ccc2c(c1)oc1ccccc12 returned FPR ligand 1.4, FPRL1 binder -2.3, VCAM-1 up imaging inactive, VCAM-1 imaging inactive and VCAM-1 down inactive.
Screening COc1ccc(NC(=O)CC2C(=O)N(c3cccc(OC)c3)C(=O)N2C2CCCCC2)cc1 (stereo unspecified) returned FPR ligand 10.9 and FPRL1 binder 10.8.
For Cc1ccc(C)c(CN2CCCNC2=O)c1 the results were FPR ligand -3.8 and FPRL1 binder 1.4.
`COc1ccc(-c2nnc3ccc(SCC(=O)NCc4ccco4)nn23)cc1OC` gave FPR ligand 2.6 and FPRL1 binder 1.8.
O=C(NCCCN1CCN(CCCNC(=O)c2ccc(F)cc2)CC1)c1ccc(F)cc1 was read as FPR ligand 9.6, FPRL1 binder 3.8, VCAM-1 up imaging inactive, VCAM-1 imaging inactive and VCAM-1 down inactive.
O=C(NCc1ccco1)c1cc2sccc2n1Cc1ccccc1 was read as FPR ligand -5.3, FPRL1 binder 5.8, VCAM-1 up imaging inactive, VCAM-1 imaging inactive and VCAM-1 down inactive.
Screening COc1cccc(Nc2cc(C)nc3nc(C)nn23)c1 returned FPR ligand -0.3 and FPRL1 binder -0.3.
CCOc1ccc(-c2cc(CCCC(=O)NCc3cccnc3)no2)cc1 was read as FPR ligand -6.0 and FPRL1 binder -9.0.
`O=C(Nc1ccc(F)cc1)N(CCCN1CCOCC1)Cc1cc2cc3c(cc2[nH]c1=O)OCO3` gave FPR ligand -5.5, FPRL1 binder 2.5, VCAM-1 up imaging inactive, VCAM-1 imaging inactive and VCAM-1 down inactive.
Screening CN(C(=O)c1cnc(N2CCN(c3ncccn3)CC2)c2ccccc12)c1ccc(Cl)cc1 returned FPR ligand 14.4 and FPRL1 binder 3.0.
`CCC(Sc1nc(=O)cc(N)n1-c1ccccc1)C(=O)Nc1ccc(Cl)cn1` (stereo unspecified) gave FPR ligand 5.6 and FPRL1 binder 4.3.
For O=C(Cn1cc2c(n1)CCCC2)N1CCCC1 the results were FPR ligand -4.9 and FPRL1 binder 4.7.
Cc1cc(=O)oc(C)c1C(=O)N1CCc2c([nH]c3ccccc23)C1C(C)C (stereo unspecified) was read as FPR ligand 1.8 and FPRL1 binder -1.8.
Screening Cn1c(=O)c2c(nc(NCc3ccco3)n2C/C=C/c2ccccc2)n(C)c1=O returned FPR ligand 9.6, FPRL1 binder 7.0, VCAM-1 up imaging inactive, VCAM-1 imaging inactive and VCAM-1 down inactive.
`CC(=O)NCC12CC3CC(C1)CC(C(=O)O)(C3)C2` gave FPR ligand 0.0 and FPRL1 binder 12.9.
Screening COc1ccc(-n2nnc3c(SCC(=O)N4CCN(c5ccccc5)CC4)ncnc32)cc1 returned FPR ligand -2.2 and FPRL1 binder 2.2.
CCOC(=O)CSc1nc2c(cnn2-c2ccc(C)cc2)c(=O)[nH]1 was read as FPR ligand 12.4 and FPRL1 binder -2.5.
C=CCSc1nnc(-c2cc(Br)ccc2N)c(=O)[nH]1 was read as FPR ligand 4.2 and FPRL1 binder 2.6.
Cc1ccc(Cn2ncn3c(cc4ccccc43)c2=O)cc1 was read as FPR ligand -16.6 and FPRL1 binder -29.3.
For CCOC(=O)C(NC(=O)C1CCCN1C(=O)OCc1ccccc1)C(=O)OCC (stereo unspecified) the results were FPR ligand 0.9, FPRL1 binder 8.3, VCAM-1 up imaging inactive, VCAM-1 imaging inactive and VCAM-1 down inactive.
Screening O=C(Cn1c(=O)oc2cc(S(=O)(=O)N3CCCC3)ccc21)Nc1ccc(C(F)(F)F)cc1 returned FPR ligand 2.0 and FPRL1 binder 0.3.
For Nc1ccc(-n2nncc2-c2ccco2)cc1 the results were FPR ligand 3.0 and FPRL1 binder 4.3.
Screening CCC(Sc1nc2sc(C(=O)OC)c(C)c2c(=O)n1N)C(=O)NCC1CCCO1 (stereo unspecified) returned FPR ligand -0.5, FPRL1 binder 2.6, VCAM-1 up imaging inactive, VCAM-1 imaging inactive and VCAM-1 down inactive.
`Cc1ccc(-n2c3c(cc(C(=O)NCCCN4CCOCC4)c2=O)C(=O)CC(C)(C)C3)cc1` gave FPR ligand -4.1, FPRL1 binder 3.5, VCAM-1 up imaging inactive, VCAM-1 imaging inactive and VCAM-1 down inactive.
Cc1ccc(C)c(N2CCN(S(=O)(=O)c3c(C)noc3/C=C/N(C)C)CC2)c1 was read as FPR ligand -7.7 and FPRL1 binder 1.2.
`Fc1ccc(-c2cnc[nH]2)cc1` gave FPR ligand -1.8, FPRL1 binder 3.6, VCAM-1 up imaging inactive, VCAM-1 imaging inactive and VCAM-1 down inactive.
Screening Cc1cc(C)nc(/N=C2\NC(=O)CC(C(=O)O)N2c2ccc(Cl)cc2)n1 (stereo unspecified) returned FPR ligand -1.5, FPRL1 binder 0.0, VCAM-1 up imaging inactive, VCAM-1 imaging inactive and VCAM-1 down inactive.
Cc1ccccc1-n1c(=O)cc(NCc2ccc3c(c2)OCO3)[nH]c1=O was read as FPR ligand 13.9, FPRL1 binder 0.9, VCAM-1 up imaging inactive, VCAM-1 imaging inactive and VCAM-1 down inactive.
Clc1ccc(C2CC(c3cccs3)n3ncnc3N2)cc1Cl (stereo unspecified) was read as FPR ligand 25.2 and FPRL1 binder 30.0.
For CSc1cccc(NC(=O)C2CCCN(S(=O)(=O)c3cnc[nH]3)C2)c1 (stereo unspecified) the results were FPR ligand 0.0 and FPRL1 binder -6.3.

Not a retest: an excerpt of the list.
Screening Cn1c(=O)c2c(nc(NCc3ccco3)n2C/C=C/c2ccccc2)n(C)c1=O returned FPR ligand 9.6, FPRL1 binder 7.0, VCAM-1 up imaging inactive, VCAM-1 imaging inactive and VCAM-1 down inactive.
`CC(=O)NCC12CC3CC(C1)CC(C(=O)O)(C3)C2` gave FPR ligand 0.0 and FPRL1 binder 12.9.
Screening COc1ccc(-n2nnc3c(SCC(=O)N4CCN(c5ccccc5)CC4)ncnc32)cc1 returned FPR ligand -2.2 and FPRL1 binder 2.2.
